NPYLR7 agonist – agonists of mosquito NPYLR7 receptor, primary screen, cell-based, Aedes aegypti, calcium fluorescence, mosquito biting behavior; AID 1259423, 2018; HEK293T NPYLR7/Galpha15, GCaMP6s calcium fluorescence; actives 0.15% (n = 270,000); Aedes aegypti neuropeptide Y-like receptor 7 (NPYLR7); activation, % at 10 µM; in the data active means activation above about 40%;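 further: 0% = vehicle and 100% = reference agonist at the receptor; some compounds past the cut are filed as inactive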
NPYLR7 agonist max-min – recorded beside NPYLR7 agonist, whose call it bears; activation, %; measured here: Max-Min RFU normalised activation; some inactives read as strong as hits;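 span of the calcium signal over five minutes; 0% = vehicle and 100% = native peptide agonist; compound fluorescence can raise it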
Numbers without * were called inactive; & = joins results of further samples.

Results follow in this order: NPYLR7 agonist	NPYLR7 agonist max-min
- CCOCCC(=O)N1CCC(=O)N(Cc2ccc(F)cc2)C(C(C)C)C1 (stereo not drawn)
  7	5
- CC(C)N(C(=O)CNc1ccc(-n2cnnn2)cc1)c1ccccc1
  -7	-5
- CN(C)Cc1csc(Nc2ccc(C(F)(F)F)cn2)n1
  0	-9
- COc1ccc(-n2c(SCc3cccc(C#N)c3)nnc2-c2ccccc2OC)cc1
  19	15
- O=C(Cn1c(=O)n(-c2ccccc2F)c(=O)c2ccccc21)NCc1cccnc1
  25	24
- CCCn1c(C)cn2c3c(=O)n(Cc4cc(C)ccc4C)c(=O)n(C)c3nc12
  4	5
- O=S(=O)(Oc1ccccc1F)c1ccc2c(c1)CCCC2
  3	1
- CC(C)(C)NC(=O)C1C(=O)NC2(C)CC1c1ccccc1O2 (stereo not drawn)
  0	7
- C=CCOC1C[C@](OCc2ccc(F)cc2)(C(=O)NCC(C)C)C[C@H]2OC(C)(C)O[C@@H]12 (stereo partly drawn)
  19	17
- COc1ccc(S(=O)(=O)NC(=O)C2(C)CCN2C(=O)C(C)(C)c2ccccc2)cc1OC (stereo not drawn)
  3	3
- CCCNC(=O)c1ccc(N2CCCC(c3nn(C)c(=O)n3CC)C2)nc1 (stereo not drawn)
  4	3
- O=C(NC1CCCc2ccccc21)C1=NN(c2ccccc2)C(=O)CC1 (stereo not drawn)
  2	-1
- CCc1nc(N)nc(N)c1-c1ccc(Cl)cc1
  -11&-10&-8	-15&-13&-12
- CCC(=O)C1=C(c2ccc(C)cc2)N(C(=O)CC)n2cnnc2S1
  24	21
- COc1ccc(CNC(=O)c2cn(Cc3ccc4c(c3)OCO4)c(=O)s2)cc1OC
  2	0
- Clc1ccc(-c2nc3sc4nc5ccccc5nc4n3n2)c(Cl)c1
  2	47
- CN1CCN(Cc2c(O)ccc3c(=O)c(-c4ccc(Cl)cc4)coc23)CC1
  6	4
- Cc1cc(C)c2nc(C)cc(C(=O)N3C[C@H](OC(C)C)[C@@H](O)C3)c2c1
  -1&4	-1&1
- CCOC(=O)c1c(NC(=O)c2ccccc2OC)c(-c2cccc(F)c2)cn1Cc1ccccc1
  1	-8
- C=CCN1C(=O)C2(NC(=O)c3ccccc3N2)c2ccccc21 (stereo not drawn)
  2	-2
- CCOC(=O)C1C(=O)CC(C)(O)C(C(=O)OCC)C1c1ccc(Br)s1 (stereo not drawn)
  4	0
- COc1cccc2c1OCC(C(=O)NCc1c(C)noc1C)C2 (stereo not drawn)
  0	0
- COc1cc(-c2onc(C)c2C(=O)NCCc2ccc(F)cc2)cc(OC)c1OC
  2	12
- O=C(c1cccc(OC2CCN(Cc3cc(F)cc(F)c3)CC2)c1)N1CCCC1
  13	6
- CC(=O)c1cccc(NC(=O)c2ccc(Cl)c(S(=O)(=O)N3CCOCC3)c2)c1
  2	1
- Cc1ccn2c(C(=O)N3CC[C@@H](c4ccc5ccccc5c4)[C@H](O)C3)nnc2n1
  -4	-5
- N#C/C(=C/c1ccc(N2CCCCC2)cc1F)c1ccc(C(=O)O)cc1
  -1	-2
- Cc1cccc(NC(=O)CN(C)C(=O)C2CCN(c3ccc(C(F)(F)F)cn3)CC2)c1C
  4	8
- Cc1nn(-c2ccccc2)c(C)c1/C=N\N1CCN(Cc2ccccc2)CC1
  -11	-15
- CC(C)NC(=S)NN=CC1CCCCC1
  2	1
- Cc1ccccc1[C@H]1[C@@H](C(=O)N(C)Cc2cnccn2)C[C@@](C)(C(=O)O)N1C
  2	-1
- CCN(CC)S(=O)(=O)c1ccc(C(C)=NOCc2cc(C)ccc2C)cc1
  3	2
- COC(=O)[C@@H]1C[C@@H](NC(=O)c2cc(Cl)cc(OC)c2)CN1C
  19	14
- CCCOC1CCCN(C(=O)C2(N)CC2)C1 (stereo not drawn)
  14	13
- COc1cc(OC)cc(C(=O)N(CC(=O)N(CCc2c[nH]c3ccccc23)Cc2ccc(N(C)C)cc2)CC(C)C)c1
  -3	8
- COc1ccc(NC(=O)C(C2CCCC2)N2CCN(C(=O)CCc3ccccc3)CC2)cc1OC (stereo not drawn)
  -3	1
- CC(=O)Nc1ccc(CN2C(=O)C(C)(C)ON=C2c2ccc(NC(C)=O)cc2)cc1
  4	-2
- COC(=O)C(C)(N)Cc1ccc(O)cc1 (stereo not drawn)
  3	-29
- COCc1c(N)cccc1Br
  15	10
- Nc1cc(-c2ccc(Cl)cc2)nn1-c1ccc(C(=O)NCc2ccc3c(c2)OCO3)cc1
  6	4
- Cc1ccc(-c2nc(OCC(C)C)nn2-c2ccc(NC(=O)c3ccc(Cl)c([N+](=O)[O-])c3)cc2)cc1
  14	19
- CCCCN(Cc1cccn1Cc1ccc(Br)cc1)C(=O)CN(CCC)C(=O)c1cccc(Br)c1
  -5	-3
- COCC(O)CN(Cc1ccccc1)Cc1cccn1Cc1ccc(C(C)(C)C)cc1 (stereo not drawn)
  0	3
- COCCNc1nccc2[nH]c(-c3ccccc3)nc12
  -7	-11
- CCCC(=O)N(CCN1CCOCC1)c1nc2c(OC)ccc(OC)c2s1
  7	1
- Cc1cc(C)cc(C(=O)Nc2ncn[nH]2)c1
  -1	-2
- N/N=C1/C2CN3CCN(C2)CC1(Cc1ccccc1)C3
  -5	-9
- COc1cc(-c2nc(COC(=O)c3nnn(-c4ccc(F)cc4)c3C)c(C)o2)cc(OC)c1OC
  -3	-11
- COc1ccc2c(c1)C1(CC(=O)N(CCCN(C)C(=O)c3ccco3)C1=O)C(=O)N2Cc1ccccc1 (stereo not drawn)
  -12	-16
- O=C(CN1CCN(Cc2cc(=O)n3c4c(sc3n2)CCCC4)CC1)N1CCCC1
  7	4
- O=C(c1ccc(C(F)(F)F)[nH]c1=O)N1CCOC(COc2cccc(C(F)(F)F)c2)C1 (stereo not drawn)
  5	1
- CC1CCCN(S(=O)(=O)c2cc(C(=O)O)ccc2Cl)C1 (stereo not drawn)
  1	0
- CC(=O)OCC(=O)N1CCN(c2nccc(-c3ccco3)n2)CC1
  -6	-10
- CCCOc1ccc(C(=O)NNC(=O)c2ccc[nH]c2=O)cc1
  3	2
- CC(NS(=O)(=O)c1ccc(C(F)(F)F)cc1)C1CC1 (stereo not drawn)
  7	2
- O=C(NCc1ccccc1)c1csc(COc2cccc(Cl)c2)n1
  24	20
- Cc1ccc(C)c2sc(N(Cc3ccncc3)C(=O)c3ccc(C#N)cc3)nc12
  -3	-9
- CN(Cc1ccoc1)C(=O)c1cn(Cc2cccc(C(F)(F)F)c2)nn1
  12	5
- COc1cn(CC(=O)Nc2cc(C)cc(C)c2)c(CSc2nncn2C)cc1=O
  -4	-6
- O=C(NCc1cccnc1)C1COC2(CCN(C(=O)c3cccc([N+](=O)[O-])c3)CC2)N1C(=O)c1ccco1 (stereo not drawn)
  25	32

Going on with the list.
Results follow in this order: NPYLR7 agonist	NPYLR7 agonist max-min
- O=C(CCc1cccs1)N1CCc2c([nH]c3ccccc23)C1c1ccccn1 (stereo not drawn)
  -7	-12
- Cc1cc(C(=O)N2CCc3c(nc(N)[nH]c3=O)C2)sc1-c1ccccc1
  19	6
- CC1Cc2cc(-c3cc(CC(=O)NCc4cc(-c5cccs5)on4)no3)ccc2O1 (stereo not drawn)
  7	8
- COc1ccc(CC(=O)N2CC(=O)N(Cc3ccc4c(c3)OCO4)CC(O)C2)cc1 (stereo not drawn)
  23	24
- CC(C)(C)C(=O)Nc1ccnn1C1CCN(CC2=CC[C@H]3C[C@@H]2C3(C)C)CC1
  2	-4
- O=C(NC(C(=O)NC1CCCCCC1)c1ccccc1)c1cccs1 (stereo not drawn)
  9	10
- O=C(N1CCc2ccccc2C1c1ccccc1F)C1(c2ccc(Cl)cc2)CCCC1 (stereo not drawn)
  0	6
- CCN(CC)c1c(C)nc2ccc(C(=O)NCc3ccc4c(c3)OCO4)cn12
  -5	-9
- C=CS(=O)(=O)Oc1cc(C)cc(C)c1
  16	11
- NC(=O)Nc1sc(-c2ccc(F)cc2)cc1C(N)=O
  -10	-14
- COc1cccc(NC(=O)Cn2ncn3nc4c(c3c2=O)CCCC4)c1
  -2	-4
- CCCCCOC(=O)C(C)Sc1n[nH]c(=O)[nH]c1=O (stereo not drawn)
  4	0
- O=C(C1CCOCC1)N(CCO)CCSc1ccc(Cl)cc1
  3	3
- COc1ccc(C(=O)N2C(C(=O)O)COC23CCN(C(=O)c2ccco2)CC3)cc1 (stereo not drawn)
  10	22
- O=C(c1cc(-c2ccc(F)cc2)nn1-c1ccc([N+](=O)[O-])cc1)N1CCN(Cc2ccccc2)CC1
  17	23
- NC1=NC2(CCC(c3ccccc3)CC2)n2c(nc3cc4c(cc32)OCCCO4)N1 (stereo not drawn)
  4	7
- CCN(Cc1nccn1Cc1ccc(Cl)cc1Cl)C(=O)c1ccc(Cl)cc1
  8	22
- O=C(NCC(O)c1ccc(F)cc1)Nc1ccc2c(c1)CCCO2 (stereo not drawn)
  6	3
- CNS(=O)(=O)c1cc(N(C)S(=O)(=O)c2ccc(C)cc2)c(C)cc1C
  -8	-11
- COc1ccc(CCOC(=O)[C@@H]2CCCN2C(=O)c2ccc(C)s2)cc1OC
  17	2
- CCc1oc2c(-n3cnnc3)cccc2c1C
  18	10
- COc1cc(NC(=O)CCC2CCCN(C(=O)Cc3cccnc3)C2)cc(OC)c1 (stereo not drawn)
  4	-3
- O=C(NCC1CCC(CNC(=O)C2CC=CC2)CC1)C1CC=CC1 (stereo not drawn)
  2	2
- CCn1c(CC2CCN(Cc3nc(C(C)C)cs3)CC2)n[nH]c1=O
  19	10
- CCOc1ccccc1NC(=O)Nc1ccc(C2NC(=S)N(CC)C(C)=C2C(=O)OC)cc1 (stereo not drawn)
  -1	-2
- CN(C(=O)c1ccccn1)C(Cc1ccccc1)C1CCN(C(=O)c2scc3c2CCCC3)CC1 (stereo not drawn)
  16	3
- Cc1ccc(S(=O)(=O)c2cnc(SCC(=O)NC3CCCCC3)[nH]c2=O)cc1Cl
  1	-1
- CCCc1c(C)nc2c(Cl)cccc2c1SCC(=O)O
  -2	32
- CCNC(=O)N1CCN(CCN2C(=O)C(CC)SC2c2ccccc2F)CC1 (stereo not drawn)
  7	11
- Cc1c(C)n2c3c(=O)[nH]c(=O)n(C)c3nc2n1CCN1CCN(c2ccc(F)cc2)CC1
  -1	-3
- O=C1NC2(CCN(C(=O)COCc3ccccc3)CC2)Nc2ccc(Cl)cc21
  -3	6
- O=C(NCc1ccco1)c1cc(-c2ccccc2)n(C2CCS(=O)(=O)C2)n1 (stereo not drawn)
  1	-1
- O=S(=O)(Nc1ccc2c(c1)CCC2)c1ccc(S(=O)(=O)N2CCCC2)cc1
  7	11
- Cc1ccc(C2=CSC3=NS(=O)(=O)CCN23)cc1
  0	-1
- O=C(CCC1CCN(C(=O)C2(c3ccccc3)CCCCC2)CC1)NC1CC1
  5	6
- FC(F)(F)CCc1ccnc(N2CCN(C3CCSCC3)CC2)n1
  8	3
- N#Cc1ccccc1CSC1=NCCS1
  1	1
- COc1ccc(C(=O)Nc2ccc(N3CCc4ccccc4C3)c(C(=O)NCC(C)C)c2)cc1
  9	21
- CCCCCNC(=O)c1csc(CN(CCOC)C(=O)Nc2ccccc2F)n1
  8	17
- Cc1ccc(CNc2oc(-c3ccc(S(=O)(=O)N4CCC(C)CC4)cc3)nc2C#N)cc1
  -1	3
- COCCNC(=O)c1csc(COc2cccc(C(F)(F)F)c2)n1
  8	16
- Cc1ccc(S(=O)(=O)NC(=O)CCc2cscn2)c(F)c1
  6	0
- N#CC1(C#N)[C@@H](C(=O)c2ccccc2)C12CCOCC2
  6	4
- CCc1nc2ccc(C(=O)NCCC(C)C)cn2c1N(CC)CCN(C)C
  19	16
- COc1cc(OC)c2c(c1)C(=O)NN1C(=O)OC(C)(C)C21C (stereo not drawn)
  -3	-6
- CC1CN(CC(=O)Nc2ccc(CN3CCOCC3)cc2)CC(C)O1 (stereo not drawn)
  7	9
- COc1ccc2sc(Nc3ccccc3C#N)nc2c1
  -3	5
- Cc1nc2c(OCc3ccccc3)cccn2c1N(C)C(=O)C1CCCCC1
  32	22
- O=C(c1ccc(F)cc1)N1CCN(S(=O)(=O)c2ccc3c(c2)CCCC3)CC1
  4	10
- O=C(NCCCNC(=O)[C@H]1CCCN1S(=O)(=O)c1cc(Cl)ccc1Cl)c1ccccc1
  14	24
- Cc1cc(C)nc(-n2nc(C)c3c2CC(/C=C/c2ccccc2)CC3=O)n1 (stereo not drawn)
  5	4
- CCOC(=O)N1CCN(C(=O)c2cc(-c3ccc(OC)cc3)n(-c3ccccc3F)c2C)CC1
  0	9
- COCc1nc(-c2cccc(CN3CCN(C(=O)c4cnc5ccccc5c4)CC3)c2)no1
  18	14
- COc1ccccc1Nc1ncc(-c2cccs2)s1
  8	6
- Cc1ccc(C(=O)NC2(C#N)CCC3(CC2)OCCO3)cc1Cl
  -1	-2

Part of the list above in another layout.
SMILES | NPYLR7 agonist | NPYLR7 agonist max-min
CC(C)NC(=S)NN=CC1CCCCC1 | 2 | 1
Cc1ccccc1[C@H]1[C@@H](C(=O)N(C)Cc2cnccn2)C[C@@](C)(C(=O)O)N1C | 2 | -1
CCN(CC)S(=O)(=O)c1ccc(C(C)=NOCc2cc(C)ccc2C)cc1 | 3 | 2
COC(=O)[C@@H]1C[C@@H](NC(=O)c2cc(Cl)cc(OC)c2)CN1C | 19 | 14
CCCOC1CCCN(C(=O)C2(N)CC2)C1 (stereo not drawn) | 14 | 13
COc1cc(OC)cc(C(=O)N(CC(=O)N(CCc2c[nH]c3ccccc23)Cc2ccc(N(C)C)cc2)CC(C)C)c1 | -3 | 8

Source: PubChem (Fisher Drug Discovery Resource Center)

Not all compounds are listed. The share of hits here may be higher or lower than overall.
